High-throughput results (PubChem)
GIV-Gai inh: inhibitors of GIV peptide binding to Galpha-i3, primary screen, biochemical, fluorescence polarization, FITC-GIV GBA peptide, rat Galphai3 | 90 min; active compounds read low; scaled: aluminum fluoride 0%, vehicle 100% | percent of control (FP), % (concentration not given with the values) | 0.42% of 210,000 active | Guanine nucleotide-binding protein G(i) subunit alpha-3 (Rattus norvegicus), P08753;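 active means replicate mean at 85% of control or lower, very high polarization wells dropped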;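 further: wells of about 15 µL received 100 nL stock; the first replicate is given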
Target sequence (P08753 whole entry, looked up): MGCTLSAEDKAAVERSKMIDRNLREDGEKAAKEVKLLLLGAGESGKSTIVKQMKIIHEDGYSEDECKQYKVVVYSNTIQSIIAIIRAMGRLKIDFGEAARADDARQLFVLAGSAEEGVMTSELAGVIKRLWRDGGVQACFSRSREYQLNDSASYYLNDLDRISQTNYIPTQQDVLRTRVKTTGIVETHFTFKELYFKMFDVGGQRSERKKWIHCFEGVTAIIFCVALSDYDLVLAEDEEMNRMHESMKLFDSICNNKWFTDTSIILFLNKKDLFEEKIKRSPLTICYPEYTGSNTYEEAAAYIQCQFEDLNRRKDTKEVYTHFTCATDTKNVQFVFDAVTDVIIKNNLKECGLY
HCMV NEC inh: inhibitors of HCMV UL50-UL53 interaction, biochemical, HTRF | normalized percent inhibition | inhibition, % (concentration not given with the values) | 0.15% of 190,000 active | AID 1918969, 2023;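 active means both replicates at 50% or more, plus weaker picks with an unusually low signal ratio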;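 further: stock transfer was 100 nL into about 20 µL; 0% = negative control wells and 100% = wells with untagged competitor protein; inactives centre near -12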
Sa growth 42C: S. aureus growth inhibition at 42 and 30 °C, primary screen, LtaS inhibitor project, RN4220, two temperatures | OD600, 20 h, 42 °C; active compounds read low | relative growth, % (concentration not given with the values) | 0.53% of 170,000 active;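 active means growth at 42 °C up to 50% and 20 or more points under that at 30 °C, or under 10% at both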;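 further: 300 nL library stock went into each well; scaled to the means of positive and negative controls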
Sa growth 42C second temp: further read-out of Sa growth 42C, marked with its call; relative growth, %; measured here: growth at 30 °C;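 optical density after 20 h as mean of two plates; 100% = untreated growth and lower means inhibition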
The depositor's hits bear a star; . = no result given; & = joins results of further samples.

SMILES | GIV-Gai inh | HCMV NEC inh | Sa growth 42C | Sa growth 42C second temp
CCCCN1Cc2c(n(CC(N)=O)c3cc(-c4ccccc4)nn3c2=O)C1=O | 102.3 | -38.6 | 95.6 | 86.0
CCC(=O)n1nc(-c2cccc(C)c2)nc1N | 100.1 | -21.5 | . | .
CCOc1ccccc1N1CC(c2nc3ccccc3n2CCCCOc2cc(C)ccc2C)CC1=O (configuration not stated) | 109.6 | -10.5 | 112.5 | 83.9
CC(=S)Nc1ccc(C(F)(F)F)cc1 | 105.0 | -2.7 | 92.2 | 69.2
CCN1/C(=C/c2ccc3cc(C)ccc3[n+]2C)Sc2cc(OC)ccc21 | 235.4 | . | -1.5* | -0.8*
CC(=O)OCC[N+](C)(C)C | 106.4 | -29.2&-14.7&-24.1&-69.0 | 100.8&90.6 | 88.4&85.8
CN(Cc1ccc(C(F)(F)F)cc1)C(=O)C1CC(=O)N(Cc2ccco2)C1 (configuration not stated) | . | -4.6 | 97.9 | 85.6
CCOC(=O)c1ccc(OCC2c3cc(OC)c(OC)cc3CCN2C(=O)Cc2ccc(OC)c(OC)c2)cc1 (configuration not stated) | 105.5 | . | 90.6 | 69.6
COc1ccccc1C(=O)Nc1cccc(Cl)c1 | 101.3 | -18.9 | 78.1 | 57.8
COc1cccc(OCC(=O)NC(C(=O)O)C(C)C)c1 (configuration not stated) | . | -25.8 | 83.2 | 90.8
CCCN1C(=O)/C(=C/c2ccc(CC)cc2)NC1=S | 103.8 | . | 97.7 | 87.5
Cc1cc(C(=O)OCC(=O)NC2CCCCC2)c(C)o1 | . | -9.5 | 106.9 | 91.7
O=c1cc(CN2CCCCC2)nc2sccn12 | . | -38.3 | 103.4 | 98.3
CCOC(=O)c1cnc2c(C)cc(C)cc2c1NCCN(C)C | 101.5 | -6.5 | 109.5 | 89.5
O=C(Nc1ccc(O)c(C(=O)O)c1)c1ccc(Br)cc1 | 98.0 | -2.0 | 107.5 | 103.7
COCc1cc(C)nc(N)c1C#N | 103.9 | . | 122.4 | 83.6
Cc1ccc(-n2c(=O)c3cccnc3n2CC(=O)NCCCc2ccccc2)cc1C | 105.5 | -13.3 | 92.6 | 97.5
CCOC(=O)c1cc(C)nn1Cc1ccc(C)cc1 | 101.4 | -4.2 | 108.6 | 76.3
Cc1ccc(/C=C/C(=O)OCc2nc(N)nc(Nc3ccccc3C)n2)o1 | . | -20.4 | 99.2 | 93.9
O=C(/C=N/O)Nc1ccc2c(c1)OCCO2 | . | -17.4 | 92.6 | 87.5
Cc1cccc(N(CC(=O)NCc2ccco2)S(=O)(=O)c2ccccc2)c1C | 109.6 | -4.6 | 115.6 | 94.4
O=C(Nc1ccccc1C(F)(F)F)c1ccncc1 | 102.5 | 4.1 | 111.2 | 92.9
Cc1ccc(S(=O)(=O)N(C)c2nc3ccccc3n3c(-c4ccc(Br)o4)nnc23)cc1 | . | -36.0 | 103.3 | 91.9
Cc1nc2nc3c(c(Nc4ccc(Br)c(C)c4)n2n1)CCCC3 | 99.5 | -25.7 | . | .
O=C(Nc1cccc(NC(=O)C2CCCO2)c1)c1ccco1 (configuration not stated) | 106.4 | 3.9 | 86.5 | 100.2
Cc1ccccc1CNC(=O)c1ccc2c(c1)N(Cc1ccccc1)CCS2 | 103.0 | 9.9 | 105.5 | 107.5
CCOC(=O)c1sc2nc(CC(=O)OC)nc(Nc3ccccc3OCC)c2c1C | 109.3 | -16.7 | . | .
O=C(NCc1cccnc1)C(F)(F)C(F)(F)C(F)(F)F | 108.4 | -8.8 | 97.4 | 114.0
CC(C)(CC(=O)Nc1ccc(F)cc1)Sc1ccc(Cl)cc1 | 93.3 | 11.2 | 73.0 | 82.0
O=C(Nc1cc(Br)ccc1O)c1cc(-c2ccc(F)cc2)on1 | 102.5 | -10.3 | . | .
O=C(c1cc2c(ccc3ccccc32)oc1=O)N1CCN(CCO)CC1 | 101.6 | -58.2 | 100.2 | 85.3
O=C(NCc1noc2ccccc12)Nc1cccc(C(F)(F)F)c1 | 98.5 | . | 87.7 | 83.4
CCN1CCN(S(=O)(=O)c2ccc(Cl)c(C(=O)NCc3nc4ccccc4[nH]3)c2)CC1 | . | 14.9 | 80.5 | 89.8
C=CCNC(=O)CN1CCN(S(=O)(=O)c2ccc(C(C)CC)cc2)CC1 (configuration not stated) | . | -21.7 | 72.4 | 89.8
Fc1ccccc1-c1noc(N2CCCCC2)n1 | 100.2 | 1.4 | . | .
COC(=O)c1ccc(OC(=O)c2ccc3c(c2)OCCO3)cc1 | . | -17.3 | 97.6 | 88.4
NC1=NC(=O)C(CC(=O)OCC(=O)Nc2cc(Cl)cc(Cl)c2)S1 (configuration not stated) | . | 5.3 | 90.7 | 95.6
CCn1c(CN2CCCCCC2=O)nnc1SCc1cnc(-c2ccccc2)s1 | . | -25.8 | 99.7 | 75.9
COc1ccc(C(C#Cc2ccccc2)N2CCOCC2)cc1 (configuration not stated) | . | -26.9 | 98.0 | 69.6
Cc1cc2c(cc1S(=O)(=O)NCCCc1ccccc1)OCC(=O)N2 | 102.4 | 15.9 | 126.2 | 102.3
Cn1c(C(=O)N2CCC(C(=O)NCc3ccccc3)CC2)cc2oc3ccccc3c21 | 104.5 | -34.2 | . | .
Cc1ccc(NC(=O)Nc2ccccn2)cc1 | 99.9 | -10.7 | 119.1 | 95.3
COc1cc(=O)n(-c2ccc(F)cc2)nc1C(=O)Nc1ccccc1O | 107.2 | -38.4 | . | .
Cc1ccc(NC(=O)CN(Cc2ccco2)Cc2ccccc2O)cc1C | . | 6.1 | 120.9 | 98.1
O=C(NC1CCCC1)C1CCCN(C(=O)c2cc(-c3ccccn3)n[nH]2)C1 (configuration not stated) | 100.0 | -3.8 | . | .
Cc1ccc(S(=O)(=O)n2nc(-c3cccnc3)nc2NCc2ccccc2)cc1 | 100.8 | 11.1 | . | .
COc1ccc(N2CCN(c3ncnc4sc(C(=O)NCC5CCCO5)c(C)c34)CC2)cc1 (configuration not stated) | 106.3 | -49.3 | . | .
Cc1ccccc1N1C(=O)NC(=O)/C(=C\C=C\c2ccco2)C1=O | 105.1 | . | 92.9 | 82.9
CCOc1cc(/C=C2\Sc3ccccc3C2=O)cc(Br)c1OCC(=O)O | 113.8 | -37.1 | . | .
O=S(=O)(Nc1ccc(-c2ccc(N3CCOCC3)nn2)cc1)c1ccc2c(c1)OCCO2 | 98.5 | -37.1 | . | .
New compounds follow:
SMILES | GIV-Gai inh | HCMV NEC inh | Sa growth 42C | Sa growth 42C second temp
O=C(O)C1CSC(c2ccccc2O)=N1 (configuration not stated) | 107.6 | 4.9 | 63.5 | 68.4
Cc1ccc(NC(=O)c2ccc(=O)n(CC(=O)Nc3cc(C)cc(C)c3)n2)cc1 | 104.9 | . | 105.1 | 77.8
Cc1ccc(CNC(=O)Cn2cc3c(n2)-c2c(oc(C(=O)N4CCOCC4)c2C)CC3)cc1 | 103.5 | . | 90.4 | 86.9
Cc1sc2ncn(C(C)C(=O)O)c(=O)c2c1C (configuration not stated) | . | -20.3 | 122.0 | 86.0
CCC1CCCCN1C(=O)Cn1c(=O)n(CCC(=O)NCc2ccco2)c(=O)c2sccc21 (configuration not stated) | 97.8 | 0.3 | 108.4 | 94.6
N#CC(c1ccc(F)cc1)N1CCOCC1 (configuration not stated) | 100.3 | -5.7 | 92.7 | 74.9
COc1ccc(CCNc2nc3c(c(=O)n(C)c(=O)n3C)n2Cc2ccccc2Cl)cc1OC | 110.3 | -14.3 | 114.6 | 95.3
COCCNC(=S)N1CCn2c1nc1ccccc12 | . | -6.8 | 98.0 | 100.4
Cc1ccc(-c2nnnn2-c2ccccc2C(F)(F)F)cc1 | 109.7 | 1.7 | 101.5 | 91.7
CCCc1ccc(/C(=N/O)C(=O)O)s1 | . | -16.0 | 96.6 | 90.3
CS(=O)(=O)Nc1ccc(Oc2c(C#N)cccc2C#N)cc1 | 98.9 | -20.5 | 96.2 | 87.6
CC1(C)CCC[C@]2(C)C3CC(=O)OC3CCC12 (some centres not stated) | 101.2 | -20.2 | 94.2 | 82.1
CC1(C)CC(=O)c2cc(-c3nc(-c4ccc(Cl)cc4)cs3)c(=O)n(-c3ccc(Cl)cc3)c2C1 | 100.6 | -12.0 | 102.0 | 88.2
COC(=O)c1ccc(CSc2nnc(-c3ccco3)n2C)o1 | . | -13.3 | 73.5 | 94.8
Cc1cccc(OCc2nnc(SCC(=O)NC34CC5CC(CC(C5)C3)C4)o2)c1 | 98.6 | -19.1 | 94.7 | 89.4
CCN(CC)C(=O)Nc1ccc(I)cc1 | 100.6 | -36.3 | 125.2 | 77.6
CCNC(=O)CC1Sc2ccccc2NC1=O (configuration not stated) | 104.6 | -12.1 | . | .
COc1ccc(C)cc1NC(=O)Cn1c(=O)cc(C)c2c(C)nn(C)c21 | 97.2 | . | 100.5 | 83.2
CCc1ccc(NC(=O)C2CCN(C(=O)N3CCOc4ccccc43)CC2)cc1 | 106.8 | -24.7 | 94.0 | 80.5
CCCC(=O)N(Cc1ccccc1)Cc1nc2ccccc2c(=O)[nH]1 | 98.9 | -3.4 | 97.2 | 82.2
O=S(=O)(c1ccc(F)cc1)N1CCC(Oc2ccc(-n3cnnn3)cc2)CC1 | 98.5 | -7.0 | 76.9 | 90.9
Cc1ccc2c(Cl)cc(Cl)c(OCC(=O)Nc3c(F)cccc3F)c2n1 | . | 7.1 | -0.2* | 0.3*
COCCNc1ncnc2onc(-c3ccc(F)cc3)c12 | 104.9 | . | 103.8 | 97.3
O=C(CSc1nc(-c2cccs2)nc2cc(=O)[nH]n12)Nc1ccccc1 | 99.8 | . | 92.0 | 79.5
COc1ccc(-c2c3c(=O)n(C)c(=O)n(C)c3c3n2C(C)(C)COC3c2c[nH]c3ccccc23)cc1 (configuration not stated) | 95.5 | -5.7 | . | .
COc1ccccc1OCCSc1nc2ccccc2n1CC(=O)O | 104.5 | -12.8 | . | .
CCSc1nnc(SCC(=O)c2c[nH]c3ccccc23)s1 | . | 4.6 | 95.7 | 101.3
CCOC(=O)c1c(C)n(-c2ccccc2)c2ccc3c(c12)CN(Cc1ccccc1)CO3 | . | -16.7 | 43.2 | 31.9
Cc1ccc(CO)cc1Nc1ncnc2onc(-c3ccc(F)cc3)c12 | 106.4 | -11.0 | 79.8 | 87.0
Cc1ccc(S(=O)(=O)N2CC=C(C(=O)NC3CCCCCC3)CC2)cc1 | 107.6 | -16.3 | 104.4 | 92.6

Arranged by count of non-hydrogen atoms (smallest number first): some entries from above
SMILES | GIV-Gai inh | HCMV NEC inh | Sa growth 42C | Sa growth 42C second temp
CCSc1nnc(SCC(=O)c2c[nH]c3ccccc23)s1 | . | 4.6 | 95.7 | 101.3
Cc1ccc(CO)cc1Nc1ncnc2onc(-c3ccc(F)cc3)c12 | 106.4 | -11.0 | 79.8 | 87.0
CCOC(=O)c1c(C)n(-c2ccccc2)c2ccc3c(c12)CN(Cc1ccccc1)CO3 | . | -16.7 | 43.2 | 31.9
COc1ccc(-c2c3c(=O)n(C)c(=O)n(C)c3c3n2C(C)(C)COC3c2c[nH]c3ccccc23)cc1 (configuration not stated) | 95.5 | -5.7 | . | .

Profiles, quoted from the list:
CCOC(=O)c1c(C)n(-c2ccccc2)c2ccc3c(c12)CN(Cc1ccccc1)CO3 is listed as GIV-Gai inh = .; HCMV NEC inh = -16.7; Sa growth 42C = 43.2; Sa growth 42C second temp = 31.9
O=S(=O)(c1ccc(F)cc1)N1CCC(Oc2ccc(-n3cnnn3)cc2)CC1 is listed as GIV-Gai inh = 98.5; HCMV NEC inh = -7.0; Sa growth 42C = 76.9; Sa growth 42C second temp = 90.9
O=C(CSc1nc(-c2cccs2)nc2cc(=O)[nH]n12)Nc1ccccc1 is listed as GIV-Gai inh = 99.8; HCMV NEC inh = .; Sa growth 42C = 92.0; Sa growth 42C second temp = 79.5

Continued:
SMILES | GIV-Gai inh | HCMV NEC inh | Sa growth 42C | Sa growth 42C second temp
CN(C)c1ccc2c3c(ccc(N(C)C)c13)COC2 | . | -61.8 | 112.8 | 82.8
COc1ccc(NC(=O)Cn2nc3c(Sc4cccc(OC)c4)nc4ccccc4n3c2=O)cc1 | 132.1 | -14.8 | . | .
COc1cccc2cc(-c3nc(Nc4cccc(C)c4)sc3C)c(=O)oc12 | 106.2 | . | 84.7 | 89.2
CCOC(=O)c1ccc(NC(=O)C2CCCN(c3ncnc4onc(-c5ccc(F)cc5)c34)C2)cc1 (configuration not stated) | 108.7 | . | 100.7 | 91.0
O=C(O)c1ccc(/C=C2\COc3ccccc3C2=O)cc1 | . | -7.5 | 84.6 | 57.1
CC(=O)c1ccc(NC(=O)c2cnn(-c3cccc(F)c3)c2-n2cccc2)cc1 | 100.2 | . | 79.3 | 91.1
O=C(NCCc1csc(-c2cccc(F)c2)n1)c1ccccc1C(F)(F)F | 100.1 | . | 82.2 | 92.1
Cc1cc(C)c(N2CC(=O)NCC2=O)c(C)c1 | 115.7 | -11.4 | 104.0 | 97.4
CCC(CC)NC(=O)Cc1cccs1 | 99.6 | -2.4 | 109.2 | 99.1
O=C(O)C1CC(O)CN1S(=O)(=O)c1ccc(Br)cc1 (configuration not stated) | . | -7.2 | 78.5 | 85.4
CC(=O)N1CCCc2cc(S(=O)(=O)N3CCC(C(=O)NC4CCCCC4)CC3)ccc21 | 101.2 | . | 90.9 | 89.7
COc1ccc(C2CC(=O)C3=C(C2)Nc2ccccc2NC3c2cc(OC)c(OC)c(OC)c2)cc1OC (configuration not stated) | 104.5 | -22.0 | . | .
